VCAM-1 up imaging: enhancers of VCAM-1 display on endothelial cells, imaging, high-content imaging, pooled HUVEC, TNFa stimulus (AID 457) | hit rate 0.2% among 10,000 | Pooled HUVEC, TNFa-induced VCAM-1 immunofluorescence imaging; hits of this screen are not shown here | calls only;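 active = a top-ranked rise in VCAM-1 staining upheld on image or statistical review; inactive = the rest, including candidates rejected on review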;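 note: compounds tested at 5 µM in the well; cells exposed to compound for 24 hours before fixing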
VCAM-1 down: inhibitors of TNFa-induced VCAM-1 surface display, cell-based, plate reader, pooled HUVEC, TNFa stimulus (AID 454). hit rate 0.2% among 10,000. inhibition, % at 5 µM. HUVEC TNFa-induced VCAM-1 surface immunofluorescence, plate reader; numbers were filed only for top-ranked candidate wells;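 active = compound among top-ranked inhibitors of TNF-induced VCAM-1 adhesion protein staining, with the hit upheld by image or statistical review; inactive = the rest, including hits rejected on review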;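 note: 0% = TNFa with vehicle and 100% = cells without TNFa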
FPRL1 binder: human FPRL1 ligands by binding competition, primary screen, cell-based, FPR counter-screen, flow cytometry; hit rate 0.3% among 24,000; FPRL1-expressing cells, fluorescent ligand binding inhibition; N-formyl peptide receptor 2 (Homo sapiens), P25090; inhibition, %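 (tested at 6.7 µM)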;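 note: 0% = buffer alone and 100% = receptor blocker peptide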
Target sequence (P25090 whole entry, looked up): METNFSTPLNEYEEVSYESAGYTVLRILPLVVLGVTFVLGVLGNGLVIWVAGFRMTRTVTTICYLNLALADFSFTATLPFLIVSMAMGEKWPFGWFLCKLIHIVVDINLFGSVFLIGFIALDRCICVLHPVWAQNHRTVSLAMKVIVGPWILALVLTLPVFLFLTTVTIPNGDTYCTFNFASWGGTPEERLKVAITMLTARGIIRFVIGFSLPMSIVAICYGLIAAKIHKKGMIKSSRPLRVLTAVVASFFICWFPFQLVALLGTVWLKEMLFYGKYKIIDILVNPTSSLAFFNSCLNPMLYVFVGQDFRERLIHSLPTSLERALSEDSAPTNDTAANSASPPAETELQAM
VCAM-1 imaging: inhibitors of TNFa-induced VCAM-1 surface display, imaging, high-content imaging, pooled HUVEC, TNFa stimulus (AID 456) | HUVEC TNFa-induced VCAM-1 surface expression, immunofluorescence imaging; numbers were filed only for top-ranked candidate wells | inhibition, % at 5 µM, or IC50 in µM where a hit was titrated | hit rate 0.2% among 10,000;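 active = top tenth filtered wells with inhibition above zero that passed visual or statistical confirmation; inactive = the rest, including hits rejected on review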;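 note: 0% = stimulated vehicle wells and 100% = unstimulated cells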
FPR binder: human FPR ligands by binding competition, primary screen, cell-based, FPRL1 counter-screen, flow cytometry | AID 440, 2006 | fMet-Leu-Phe receptor (Homo sapiens), P21462 | inhibition, %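 (tested at 6.7 µM)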 | FPR-expressing cells, fluorescent ligand binding | hit rate 0.74% among 24,000;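 note: 0% = buffer wells and 100% = receptor blocker peptide wells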
Target sequence (P21462 whole entry, looked up): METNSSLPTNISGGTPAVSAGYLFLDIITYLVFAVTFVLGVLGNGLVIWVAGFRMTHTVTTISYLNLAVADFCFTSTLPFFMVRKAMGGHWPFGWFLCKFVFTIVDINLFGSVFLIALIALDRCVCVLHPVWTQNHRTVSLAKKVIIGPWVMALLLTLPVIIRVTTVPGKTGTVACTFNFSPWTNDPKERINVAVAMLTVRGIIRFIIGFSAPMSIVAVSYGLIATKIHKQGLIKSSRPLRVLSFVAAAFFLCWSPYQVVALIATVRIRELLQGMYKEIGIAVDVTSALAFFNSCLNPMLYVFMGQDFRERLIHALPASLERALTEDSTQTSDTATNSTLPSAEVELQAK
* marks the source's active call; other numbers are inactive results; i = inactive; x = no result given.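 Rule for the calls, unless noted: active = mean above 30%; inconclusive = self-fluorescent; inactive = the rest.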

SMILES	VCAM-1 down	FPR binder	FPRL1 binder	VCAM-1 imaging	VCAM-1 up imaging
COc1ccc(NC(=O)CSc2nnc(CNC(=O)c3ccco3)o2)c(OC)c1	x	1	-1	x	x
CCOC(=O)c1c(C)c(C(=O)NCC2CCCO2)c(C)n1CC (stereo unspecified)	x	2	2	x	x
COc1ccc(N2CCN(CCCNC(=O)c3cc4sccc4n3C)CC2)cc1	x	-19	2	x	x
Cc1nc(N)c(C#N)c(-c2cccnc2)c1C	i	-8	1	i	i
C=C(C)C1Cc2c(C)nn(-c3nc(C)cc(C)n3)c2C1 (stereo unspecified)	i	-6	-4	i	i
O=C(Nc1c2c(nn1-c1ccc(F)cc1)CS(=O)C2)C12CC3CC(CC(C3)C1)C2 (stereo unspecified)	x	-5	5	x	x
CCOc1ccc(Cn2nnc(C(=O)Nc3cc(OC)cc(OC)c3)c2N)cc1	x	0	-2	x	x
CCN(CC)c1ccc(NC(=O)CSc2nnc(N)s2)cc1C	x	-12	7	x	x
Cc1ccc2cc3cc(C(=O)NCCN4CCOCC4)oc3nc2c1	i	-6	4	i	i
CCOC(=O)C1CCCN(C(=O)CCn2nc(-c3ccccc3)ccc2=O)C1 (stereo unspecified)	x	12	-8	x	x
CCc1ccc(NC(=O)C2CCCCC2C(=O)O)cc1 (stereo unspecified)	x	-5	-1	x	x
O=C(c1ccco1)N1C2C=CC(C2)C1(C(F)(F)F)C(F)(F)F (stereo unspecified)	x	8	4	x	x
O=C(O)Cc1csc2ccccc12	x	-13	-10	x	x
Cc1ccc(-c2noc(COc3ccccc3C)n2)cc1	i	3	-1	i	i
COc1ccc(-c2ccc(=O)n(Cc3cc(=O)n4ccccc4n3)n2)cc1	i	-4	2	i	i
Cc1ccc(C2C(C(=O)c3sc(C)nc3C)=C(O)C(=O)N2CCN(C)C)o1 (stereo unspecified)	i	2	-6	i	i
O=C(Cc1ccccc1)Nc1nonc1NC(=O)c1ccccc1	x	-2	-1	x	x
CN(CCNC(=O)C1(O)c2ccccc2NC(=O)N1c1ccccc1)Cc1ccccc1 (stereo unspecified)	x	-10	-8	x	x
Cn1cc(S(=O)(=O)CC(=O)Nc2ccc3c(c2)OCCO3)c2ccccc21	x	10	8	x	x
O=C(O)c1ccc(CN2C(=O)CSC2=S)cc1	x	0	-4	x	x

Sorted by SMILES length (rising): some entries from above.
SMILES	VCAM-1 down	FPR binder	FPRL1 binder	VCAM-1 imaging	VCAM-1 up imaging
O=C(Cc1ccccc1)Nc1nonc1NC(=O)c1ccccc1	x	-2	-1	x	x
CCOc1ccc(Cn2nnc(C(=O)Nc3cc(OC)cc(OC)c3)c2N)cc1	x	0	-2	x	x
COc1ccc(NC(=O)CSc2nnc(CNC(=O)c3ccco3)o2)c(OC)c1	x	1	-1	x	x
CN(CCNC(=O)C1(O)c2ccccc2NC(=O)N1c1ccccc1)Cc1ccccc1 (stereo unspecified)	x	-10	-8	x	x

(cont.)
SMILES	VCAM-1 down	FPR binder	FPRL1 binder	VCAM-1 imaging	VCAM-1 up imaging
COc1ccc(C(=O)Oc2c(CN3CCOCC3)cc(Cl)c3cccnc23)cc1OC	i	-4	-1	i	i
CCOc1ccc(-n2c(SC(C)C)nc3c(c2=O)SCC3)cc1	x	14	7	x	x
O=C(CN1C(=O)CCSc2ccccc21)Nc1ccc(F)cc1	i	-1	5	i	i
Cc1cc(C(=O)O)c(S(C)(=O)=O)s1	x	-4	0	x	x
O=C1CSC(c2cccnc2)N1C1CCCCC1 (stereo unspecified)	x	0	2	x	x
Cc1noc(/C=C/N(C)C)c1S(=O)(=O)N(C)CC(=O)N1CCc2ccccc21	x	2	-3	x	x
COc1ccc(-n2ncc3c(NCc4ccccn4)ncnc32)cc1	i	-2	0	i	i
COc1ccc(C(=O)N2CCN(c3nc4ccccc4o3)CC2)cc1OC	x	6	1	x	x
COc1ccccc1-c1cc(C(=O)NC(C)C)no1	x	10	2	x	x
Oc1ccccc1-c1cc(C(F)(F)C(F)F)[nH]n1	i	-2	1	i	i
CCOC(=O)N1CCN(C(=O)C2CC(c3ccccc3OC)=NO2)CC1 (stereo unspecified)	x	1	4	x	x
CCC1(CC)C(=O)C(C)(C)C(=O)OC1c1cccs1 (stereo unspecified)	i	10	2	i	i
COc1ccc(N2CCN(C(CNS(=O)(=O)c3cc(F)ccc3F)c3cccnc3)CC2)cc1 (stereo unspecified)	x	0	8	x	x
CCOc1ccc2nc(Nc3nc4c(c(=O)[nH]3)CCC4)nc(C)c2c1	i	4	1	i	i
O=C1N2c3ccccc3CCc3cccc(c32)C1(O)C(F)(F)F (stereo unspecified)	i	-2	-13	i	i
CC(C)CN(CC(C)C)S(=O)(=O)N1CCC(C(=O)NCCN2CCOCC2)CC1	x	2	2	x	x
O=C(CN1CCN(c2ccccc2F)CC1)c1ccc2cc[nH]c2c1	x	-5	-2	x	x
C/C(=N\O)C1/C(=N/O)CC2C1C2(C)C (stereo unspecified)	x	-6	8	x	x
CC(C)c1nccn1S(=O)(=O)c1cc(Cl)ccc1Cl	i	-8	1	i	i
COCCNC(=O)c1cc(-c2ccc(Cl)c(Cl)c2)on1	x	2	6	x	x
CSc1nncn1/N=C/c1cc(Cl)ccc1F	x	-3	-6	x	x
CCn1cc(S(=O)(=O)CC(=O)NC2CCCCC2)c2ccccc21	x	-7	10	x	x
COc1ccc(-c2noc(CSc3nc4ccccc4c(=O)n3-c3ccccc3)n2)cc1OC	i	0	-3	i	i
CCN(C(=O)COC(=O)c1ccccc1Nc1cccc(C)c1C)C1CCS(=O)(=O)C1 (stereo unspecified)	x	-31	11	x	x
CC(=O)CCc1oc2ccc(NC(C)=O)cc2c1-c1ccc(C)o1	x	2	-3	x	x
Cc1cc(=O)n(C)c(=O)n1CCCNc1ccccc1	i	-1	7	i	i
CCN(CC)S(=O)(=O)c1ccc(C(=O)NCCc2cc3c(OC)ccc(OC)c3[nH]c2=O)cc1	x	-4	0	x	x
CCOc1ccc(N(CC(=O)N2CC=C(c3ccccc3)CC2)S(=O)(=O)c2c(C)noc2C)cc1	x	-4	2	x	x
Cc1ccc(S(=O)(=O)NCCN(CCNS(=O)(=O)c2ccc(C)cc2)S(C)(=O)=O)cc1	x	2	8	x	x
O=C(Cn1cnc2ccccc2c1=O)NCCC(=O)N1CCN(Cc2ccccc2)CC1	i	-3	-4	i	i
CCCCOC(=O)C1=C(C)Nc2nnnn2C1c1ccc(OC)c(OC)c1OC (stereo unspecified)	x	-7	-3	x	x
CC(C)C(NC(=O)CC12CC3CC(CC(C3)C1)C2)C(=O)O (stereo unspecified)	x	6	1	x	x
Cc1ccc(Cn2nnc(C(=O)Nc3cccc(C)c3C)c2N)cc1	i	-6	-7	i	i
O=C(CSc1nnc2scc(-c3ccccc3)n12)NCc1ccco1	x	0	0	x	x
COc1ccc(C)cc1S(=O)(=O)N(C)CC(=O)Nc1ccc2c(c1)OCO2	i	-6	4	i	i
CCCCN(CC)CCNc1c(N2CCN(C(=O)OCC)CC2)c(=O)c1=O	x	-7	-3	x	x
COc1ccccc1Nc1nc(N)nc(CN2CCN(c3ccccc3F)CC2)n1	i	-8	5	i	i
CCOC(=O)N1CCC(NC(=O)c2sc(-n3cccc3)nc2C)CC1	x	-3	2	x	x
CCOC(=O)c1[nH]c2ccc(F)cc2c1NC(=O)C(C)N1CCc2cc(OC)c(OC)cc2C1 (stereo unspecified)	i	3	6	i	i
Cc1ccc(S(=O)(=O)Cc2ccc(C(=O)N3CCCCCC3)o2)cc1	x	2	4	x	x
CCOc1ccc(N2C(=O)c3ccccc3C2O)cc1 (stereo unspecified)	x	-1	4	x	x
CC1=C(C(=O)NCCN2CCN(C)CC2)C2(CCC(C)CC2)OC1=O (stereo unspecified)	x	0	7	x	x
O=C(CN1C(=O)CC(c2ccco2)Sc2ccccc21)Nc1ccc2c(c1)OCCO2 (stereo unspecified)	i	9	-1	i	i
CCOc1ccc(N(CC(=O)Nc2ccc(C)c(C)c2)S(=O)(=O)c2c(C)noc2C)cc1	i	3	-5	i	i
O=C(CSc1nnnn1C1CCCC1)Nc1cccc(NC(=O)c2ccco2)c1	i	9	1	i	i
COCCn1c(Sc2nc(C)cs2)nc2c1c(=O)[nH]c(=O)n2C	i	20	4	i	i
COc1cc(NC(=O)C2CCN(S(=O)(=O)c3cccc4nonc34)CC2)cc(OC)c1	x	-4	-1	x	x
CCOc1cc(NC(=O)c2ccco2)c(OCC)cc1NC(=O)CCc1ccc(OC)cc1	i	33*	1	i	i
CCCOc1ccc(C2C(C(=O)OC)=C(C)N=C3SCCC(=O)N32)cc1OCC (stereo unspecified)	x	-10	-5	x	x
CN(CC(=O)Nc1ccc(F)c(Cl)c1)S(=O)(=O)c1cccc2nsnc12	i	-3	-4	i	i
COCCCN1C(=O)C(=O)/C(=C(/O)c2ccc(OCC(C)C)cc2C)C1c1cccnc1 (stereo unspecified)	i	12	-4	i	i
COc1ccc(-c2noc(CCC(=O)NCCCN3CCC(C)CC3)n2)cc1	x	-15	-7	x	x
Cc1c(C(=O)NCCN2CCOCC2)sc2nc(-c3ccc(F)cc3)cn12	x	4	15	x	x
O=C(NCc1ccccc1)c1noc2c1CCCCC2	x	-1	0	x	x
COc1ccc(C2N3CC4(C)CN2CC(C)(C3)C4O)cc1 (stereo unspecified)	x	-3	1	x	x
Cc1nnc(C)n1/N=C/c1ccc(C(C)C)cc1	x	-3	-2	x	x
CCCn1cnc2c(cnn2-c2ccc(F)cc2)c1=O	i	0	-2	i	i
COCCCN1CC23C=CC(O2)C(C(=O)O)C3C1=O (stereo unspecified)	x	-9	-6	x	x
COc1ccc(N2CCN(C(=O)c3ccc4nc(N5CCCCC5)sc4c3)CC2)cc1	x	-1	6	x	x
COc1ccc(Br)c(C(=O)Nn2c(C)nc3ccccc3c2=O)c1	x	1	4	x	x

Going on with the list:
SMILES	VCAM-1 down	FPR binder	FPRL1 binder	VCAM-1 imaging	VCAM-1 up imaging
Nc1ccc(S(=O)(=O)Nc2ccccn2)cc1	i	1	0	i	i
CCCCNc1cc(=O)n(C)c(=O)[nH]1	x	6	4	x	x
CC(=O)c1c(C)nc2ccccn12	x	4	4	x	x
COc1ccc(Br)cc1S(=O)(=O)N1CC(C)OC(C)C1 (stereo unspecified)	i	-15	3	i	i
CCOc1ccc(C2N(c3cc(C)on3)C(=O)C3CCCN32)cc1OC (stereo unspecified)	x	-3	1	x	x
COc1ccc(NC(=O)c2ccco2)cc1NC(=O)c1cccs1	i	-3	5	i	i
Cc1ccc(C2/C(=C(\O)c3ccc4c(c3)OCCO4)C(=O)C(=O)N2CCCN(C)C)o1 (stereo unspecified)	x	4	9	x	x
CN(C)/C=C1\N=C(c2ccc3c(c2)OCO3)OC1=O	i	2	1	i	i
Cc1ccc(CNC(=O)c2ccc(Cn3nc(C)c(Cl)c3C)o2)cc1	x	3	-2	x	x
C=CCn1c2ccccc2c2nnc(SCC(=O)NC(C(=O)OC)C(C)C)nc21 (stereo unspecified)	i	4	2	i	i
CC(=O)c1sc(NC(=O)c2ccc(Cn3cc(Br)cn3)o2)nc1C	x	13	2	x	x
CCOc1ccc(/C(O)=C2/C(=O)C(=O)N(CCOCCO)C2c2ccc(F)cc2)cc1 (stereo unspecified)	x	1	-5	x	x
COc1ccccc1NC(=O)Cn1c(=O)n2nc(C)nc2c2ccccc21	x	-2	0	x	x
O=S(=O)(c1cccc2c(S(=O)(=O)N3CCCC3)cccc12)N1CCCC1	i	13	-3	i	i
C=CCOC(=O)C1=C(C)Nc2nnnn2C1c1cccc(OC)c1OC (stereo unspecified)	x	-7	-6	x	x
CC1CCCN(S(=O)(=O)c2coc(C(N)=O)c2)C1 (stereo unspecified)	i	-5	-1	i	i
CCCS(=O)(=O)N1CCCC(C(=O)NCCCN(Cc2ccccc2)C(C)C)C1 (stereo unspecified)	x	-2	-5	x	x
CCC(=O)Nc1ccc(NC(=O)c2cccc(OC)c2)nc1	i	-20	-3	i	i

Assay outcomes deposited in PubChem BioAssay by several laboratories.

A portion of the library, so the mix of outcomes need not match the whole.
